# TRPV1 potentiator = HTS Assay for Compounds that Act as Potentiators of the Vanilloid Receptor 1. Transient receptor potential cation channel subfamily V member 1 (Homo sapiens), Q8NER1. potentiation, % at 8.33 µM. TRPV1-expressing cells, Fluo-8 calcium influx, capsaicin EC20 potentiation; host cell line not named in the record; control for the full effect not named in the record. AID 540277, 2011. actives 0.02% (n = 320,000); active means potentiation above 80%; inconclusive means 30% to 80%; inactive means below 30%; also: 0% is about no effect
# Target sequence (Q8NER1 whole entry, looked up): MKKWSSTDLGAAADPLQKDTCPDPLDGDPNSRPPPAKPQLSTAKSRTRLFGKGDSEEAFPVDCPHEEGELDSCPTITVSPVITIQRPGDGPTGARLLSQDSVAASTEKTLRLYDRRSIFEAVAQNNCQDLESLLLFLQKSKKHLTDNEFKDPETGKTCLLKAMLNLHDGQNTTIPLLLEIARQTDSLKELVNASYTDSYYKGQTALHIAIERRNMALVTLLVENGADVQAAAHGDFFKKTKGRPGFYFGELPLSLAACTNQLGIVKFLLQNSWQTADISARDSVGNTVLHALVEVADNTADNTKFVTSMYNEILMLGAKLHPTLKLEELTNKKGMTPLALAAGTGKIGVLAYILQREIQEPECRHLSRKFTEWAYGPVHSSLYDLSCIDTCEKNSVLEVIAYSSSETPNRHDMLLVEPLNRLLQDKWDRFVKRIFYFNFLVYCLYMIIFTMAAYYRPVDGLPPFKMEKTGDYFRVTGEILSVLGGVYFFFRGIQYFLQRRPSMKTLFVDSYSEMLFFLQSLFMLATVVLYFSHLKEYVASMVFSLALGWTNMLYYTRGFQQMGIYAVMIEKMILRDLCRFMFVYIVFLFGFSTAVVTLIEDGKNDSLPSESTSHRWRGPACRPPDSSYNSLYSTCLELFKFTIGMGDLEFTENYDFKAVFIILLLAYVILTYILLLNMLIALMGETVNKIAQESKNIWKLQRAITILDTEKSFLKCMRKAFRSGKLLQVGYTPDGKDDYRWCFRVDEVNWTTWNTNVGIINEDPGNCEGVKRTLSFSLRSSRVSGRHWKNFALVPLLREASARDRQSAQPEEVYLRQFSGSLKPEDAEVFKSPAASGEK
#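 Fluo-8 calcium influx in TRPV1-expressing cells, kinetic read (ex 480/em 520 nm). Compound added and read 3 min for agonist activity, followed by capsaicin at EC20 final and 2 min further read for enhancement.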
# TRPML1 blocker = qHTS for Inhibitors of the Human Mucolipin Transient Receptor Potential 1 (TRPML1) | Mucolipin-1 (Homo sapiens), Q9GZU1 | TRPML1-inducible cells, Ca2+ dye fluorescence, FDSS; active compounds read low; inhibition of EC80 agonist-evoked calcium signal | activity change, negative = inhibition, % (no concentration beside the values) | actives 0.02% (n = 390,000) | AID 624415, 2012; in the data active means activity change below about -50%; inconclusive means about -30% to -50%; inactive means above about -30%;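 also: stimulus is agonist 54-4 at its EC80 concentration; % is scaled to controls: 0 for no effect and ±100 for the full control effect; compound concentration not given in the record; the text of the record puts the active cut at -80%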
#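 Calcium fluorescence in TRPML1-DL cells induced overnight with Tet: a 110 s read after compound pin addition, then a 110 s antagonist read after challenge with 54-4 at 4 uM final (EC80).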
# CtBP-E1A blk = qHTS Assay for Inhibitors of the CtBP/E1A Interaction. CtBP / adenovirus E1A interaction (AlphaScreen). AlphaScreen GST-E1A/His-CtBP binding, 1536-well; active compounds read low; control for the full effect not named in the record. activity change, % (concentration not given with the values). actives 0.49% (n = 340,000). AID 651724, 2012; in the data active means activity change below about -65%; inconclusive means about -30% to -65%; inactive means above about -30%; also: % is scaled to controls: 0 for no effect and ±100 for the full control effect
#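 AlphaScreen with 125 nM GST-E1A and 125 nM His-CtBP (5X stocks) in Tris pH 8.0, 300 mM NaCl, BSA, Tween 20, TCEP. Compounds preincubated 2 h at 37 deg C, then glutathione donor/nickel acceptor beads added for 1 h at 37 deg C in dark.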
# TRPML1 agonist = qHTS for Agonists of the Human Mucolipin Transient Receptor Potential 1 (TRPML1) | Mucolipin-1 (Homo sapiens), Q9GZU1 | TRPML1-expressing cells, Ca2+ dye fluorescence, FDSS; host cell line not named in the record; reference of the full effect not given here | activation, % (test concentration not listed) | actives 0.12% (n = 410,000) | AID 624414, 2012; in the data active = activation above about 50%; inconclusive = about 30% to 50%; inactive = below about 30%; also: 0% is about no effect; the text of the record puts the active cut at 80%
#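 Agonist activity was taken from a 110 s kinetic Ca2+ dye read on the FDSS after pinning compounds onto TRPML1-DL cells. The cells were seeded at 1,500/well with Tet inducer, incubated about 16 h, then dye-loaded at room temperature.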
# Six1-Eya2 inh = qHTS Assay for Inhibitors of the Six1/Eya2 Interaction; AlphaScreen GST-Six1/His-Eya2 binding, biochemical; active compounds read low; control for the full effect not named in the record; actives 0.56% (n = 360,000); activity change, % (test concentration not listed); Homeobox protein SIX1 (Homo sapiens) + Protein phosphatase EYA2 (Homo sapiens), …; in the data active = activity change below about -65%; inconclusive = about -30% to -65%; inactive = above about -30%; also: % is scaled to controls: 0 for no effect and ±100 for the full control effect
#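 Compounds are tested against tagged Six1 and Eya2 proteins bridged by glutathione donor and nickel acceptor beads; after a one-hour incubation at 37 °C without light, AlphaScreen emission is recorded.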
# D2 PAM = Beta-Arrestin HTS for Positive Allosteric Modulators of the Human D2 Dopamine Receptor: Potentiators; DiscoveRx D2 beta-arrestin cells, luminescence, 90 min; 100% = 57 uM dopamine signal; potentiation, % (test concentration not listed); D(2) dopamine receptor (Homo sapiens), P14416; actives 0.23% (n = 360,000); active = potentiation of 50% or more; inconclusive = 30% to 50%; inactive = 30% or less;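 also: compound concentration not given in the record; tested on top of an EC20 dose of dopamine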
#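 PathHunter beta-arrestin assay in DiscoveRx D2 cells. Compounds were added with an EC20 of dopamine (50 nM final) for 90 min at 37 deg C. Luminescence was read 1 h after detection reagent, with 57 uM dopamine as the EC100 control.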
# * = called active by the depositor; ? = inconclusive; / = not tested or not shown; & = joins results of further samples.
SMILES,TRPV1 potentiator,TRPML1 blocker,CtBP-E1A blk,TRPML1 agonist,Six1-Eya2 inh,D2 PAM
CCN(CC)S(=O)(=O)c1ccc(N2CCOCC2)c(NC(=O)CCOc2ccccc2)c1,-13,3,/,2.3,7,2
N=C1C(c2ccccc2)=C(O)CN1c1cccc2ccccc12,13,16,0,0.5,1,-2
CN(CC(=O)Nc1ccccc1Cl)C(=O)COC(=O)c1cnccn1,2,4,7,-0.1,4,-8
COc1ccccc1Oc1ccc2c(c1)C(=O)N(c1ccc(C)cc1)C2=O,-8,5,-8,0.5,8,16
COC(=O)c1cc(C(=O)NCC2CCCCC2)cc([N+](=O)[O-])c1,-17,10,-1,-0.3,-6,2
Cc1nn(-c2ccccc2)nc1CNC(=O)C1CCC1,-22,-10,/,-0.9,4,-19
CC(=O)c1c(C(C)=O)c(C)n(Cc2ccc(Cl)cc2)c1C,2,35,-3,-0.8,-3,-12
COc1ccc(C2=CCN3CCCCC3C2)c(-c2ccc(OC)c(OC)c2)c1 (stereo not drawn),/,-7,0,-0.3,-10,-23
CCOC(=O)Cc1csc(SCC(=O)/C(C#N)=C(\C)N)n1,-2,-9,-3,2.0,1,-7
CN(C)Cc1ccccc1-c1cccc2nccn12,/,/,4,-0.4,-3,-7
O=c1cc(N2CCN(c3ccccc3)CC2)[nH]c(=O)n1C1CCCCC1,-14,-14,-2,1.0,4,-6
CC(C)(C)c1ccc(C(=O)N/N=C/c2ccc(OCCCF)cc2)cc1,4,18,-12,0.6,-13,-11
Cc1nnc(SCc2ccccc2)nc1/C=C/NOCc1ccc(Cl)cc1Cl,4,3,-3,2.1,-12,-53
COc1ccccc1Nc1nc(NCC(C)C)nc(N)c1[N+](=O)[O-],-7,-5,-13,1.1,-6,-8
Cc1onc(-c2c(Cl)cccc2Cl)c1-c1nnc(-c2ccc(Cl)cc2)o1,-17,2,-16,0.5,-7,-9
CCOC(=O)CN1NC2(CCCCCC2)NC1=S,1,-11,9,3.6,0,-7
C=CCSc1nnc(NC(=O)CN2C(=O)NC3(CCCC3)C2=O)s1,0,26,0,0.2,16,-10
CCC(Sc1nc(C)cc(C)n1)C(=O)Nc1cc(C)on1 (stereo not drawn),6,14,0,-0.8,5,0
COC(=O)CCCCC1SCC(NC(=O)OC)C1NC(=O)OC (stereo not drawn),-4,-11,-5,-0.2,12,-4
Cc1cc(CN(C)C(=O)c2cc(COc3ccc(F)cc3Cl)on2)n[nH]1,-19,21,8,-0.1,6,-2
CCSc1ccc2cc(OC)ccc2[n+]1CC,20,22,-1,-0.5,-2,-4
Cc1cc(-c2n[nH]c(=S)n2/N=C/c2cc([N+](=O)[O-])ccc2Cl)n[nH]1,-2,-5,-81*,0.1,-80*,1
COc1cc(NC(=S)N2CCN(S(=O)(=O)c3ccc(C)cc3)CC2)cc(OC)c1,8,-9,-4,-0.3,-11,9
CC(C)(C)OC(=O)N1CCC(CNC(=O)Nc2ccccc2)CC1,-11,-7,-18,1.2,-7,-4
CN(c1ccccc1)S(=O)(=O)c1ccc(C(=O)OCC(=O)NCc2ccco2)cc1,-8,1,5,-0.1,0,-7
CCS(=O)(=O)n1c(Cc2cccs2)nc2ccccc21,?,2,/,-0.2,15,-13
CCC(NC(=O)C1C2C=CC(C2)C1C(=O)O)c1ccc(C)cc1 (stereo not drawn),3,-7,3,-0.2,2,-6
CCCn1nnnc1NCc1cccn1C,22,11,-3,1.6,-17,-7
CC(C)C(NC(=O)c1c(F)cccc1F)C(=O)NCc1ccncc1 (stereo not drawn),8,-4,0,0.1,2,5
Cc1ccc(Cl)cc1-c1cc(C(=O)N2CCN(c3ccncc3)CC2)[nH]n1,/,/,0,-0.4,6,-13
CCOC(=O)C1(CCOc2ccccc2)CCN(Cc2ccc(C#CCCO)cc2)CC1,-2,33,-4,1.4,-17,-28
Oc1ccccc1CNc1ncc(Br)cc1Br,6,56,-7,1.7,1,-8
COc1ccc(CCNC(=O)[C@H](CCSC)NC(=O)N2CCn3c2nc2ccccc23)cc1OC,7,3,5,-1.3,0,-8
CCCOc1ccc(C2C(=O)N(C3CCCCC3)CC(=O)N2C2CC2)cc1OC (stereo not drawn),2,20,3,0.2,-2,2
CSc1ccccc1C(=O)Nc1cccc([N+](=O)[O-])c1,10,2,0,0.1,0,-5
COc1ccc([N+](=O)[O-])cc1NC(=O)C(C)OC(=O)Cc1ccc(OC)c(OC)c1 (stereo not drawn),/,-12,-3,1.2,-6,11
CCOC(=O)C1=Nc2ccccc2C1=[N+]=[N-],-5,-6,0,-1.0,-8,?
CCCOc1ccc(-c2nnn(CC(=O)c3ccc4c(c3)OCCO4)n2)cc1,0,-3,10,0.5,-1,-3
Cc1cccc2c1N(CCOc1ccccc1)C(=O)C2=O,4,10,-1,4.7,0,-26
CCn1c(SCC(=O)Nc2cc(OC)ccc2OC)nc2c(c1=O)SCC2,-1,2,11,0.9,-14,11
O=[N+]([O-])c1ccc(-c2cn(-c3ccccc3F)c(=S)[nH]2)cc1,-12,2,-17,1.0,5,-4
COCCn1c(SCC(=O)Nc2cc(C)on2)nc2cc(Cl)ccc2c1=O,0,-1,6,0.6,4,-12
O=C(N/N=C/c1ccc(-c2ccccc2[N+](=O)[O-])o1)c1cncc(Br)c1,7,-3,-66*,1.6,-78*,1
Cc1ccc(SC[C@H](c2ccccc2)N2CCN(CC(C)C)CCC2=O)cc1,-12,29,1,0.1,5,-16
CCOc1ccc(C(CC(=O)O)NC(=O)Cc2ccccc2)cc1OC (stereo not drawn),3,/,-13,/,15,-11
N#CC1=C2SCN(c3ccccc3)CN2C(=O)CC1c1ccccc1Cl (stereo not drawn),8,-1,-2,-0.6&0.0,3,-7
O=C(O)c1cccc2c1C(=O)c1ccc(-c3ccc(Cl)c(C(F)(F)F)c3)cc1S2(=O)=O,8,-10,/,0.6,-3,-1
COc1ccc(N2CCN(C(=O)c3ccc(Cl)c(S(=O)(=O)N4CCOCC4)c3)CC2)cc1,/,17,-3,-0.4,-4,1
COc1ccccc1OCCOCCOc1ccc(C)cc1[N+](=O)[O-],10,-11,14,0.0,7,1
CSc1ccccc1NC(=O)C1(C)CCN1C(=O)Cc1ccc(-c2ccccc2)cc1 (stereo not drawn),/,/,0,1.3,-5,-4
COc1ccc(NC(=O)Nc2ccc3oc(C)nc3c2)cc1,?,-4,0,0.1,-1,-5
O=S(=O)(NCCc1csc(-c2cccnc2)n1)c1ccc(Cl)s1,0,16,-1,0.3,-3,-7
CCOC(=O)C1=C(COC(=O)/C=C/c2cccc(Br)c2)NC(=O)NC1C (stereo not drawn),4,-1,?,0.5,-1,1
CC(=O)Nc1cccc(-c2ccnc3c2CC(C(=O)Nc2ccc4c(c2)OCO4)O3)c1 (stereo not drawn),/,?,?,-0.6,-13,-9
O=C1CC(N2CCC(c3nc4ccccc4s3)CC2)C(=O)N1Cc1ccccc1 (stereo not drawn),-2,-12,-2,1.1,-5,-8
O=C(COC(=O)CSc1ccc(F)cc1)NCC1CCCCC1,-10,5,0,0.4,-4,-17
NC(=O)CN(Cc1ccccc1)S(=O)(=O)c1ccc2c(c1)OCCO2,3,13,7,0.1,1,-2
COc1cc2c(cc1NC(=O)C1CCCO1)oc1ccccc12 (stereo not drawn),-3,43,1,0.3,2,-4
Cc1ccc(S(=O)(=O)CCc2nnc(NC(=O)c3cnccn3)s2)cc1,-6,-5,5,-0.5,-5,-9
O=C(Nc1cscc1S(=O)(=O)c1ccccc1)c1ccccc1Cl,7,62,1,1.6,7,-2

# An excerpt from above in order of the D2 PAM value, lowest first.
structure,D2 PAM
Cc1ccc(SC[C@H](c2ccccc2)N2CCN(CC(C)C)CCC2=O)cc1,-16
CC(=O)Nc1cccc(-c2ccnc3c2CC(C(=O)Nc2ccc4c(c2)OCO4)O3)c1 (stereo not drawn),-9
N#CC1=C2SCN(c3ccccc3)CN2C(=O)CC1c1ccccc1Cl (stereo not drawn),-7
COc1ccc(N2CCN(C(=O)c3ccc(Cl)c(S(=O)(=O)N4CCOCC4)c3)CC2)cc1,1

# Later entries:
SMILES,TRPV1 potentiator,TRPML1 blocker,CtBP-E1A blk,TRPML1 agonist,Six1-Eya2 inh,D2 PAM
Cc1c(CCO)c(=O)[nH]n1S(=O)(=O)c1ccc(Cl)cc1Cl,-6,1,2,0.4,4,-10
CCOC(=O)c1cccc(NC(=O)CSc2nc3cccnc3n2C)c1,12,5,-16,0.9,-17,3
O=C(Cc1ccc(F)cc1)NCc1cccnc1,-1,6,/,0.0,-2,-4
CSCCC(NC(=O)c1ccc([N+](=O)[O-])cc1Cl)C(=O)OCC(=O)NCCCc1ccccc1 (stereo not drawn),-2,8,-27,-0.3,-27,-10
COCCNC(=O)CN(c1cccc(OC)c1)S(=O)(=O)c1ccc(C)cc1,5,-1,-8,-0.4,8,-1
CC1CC(C)CN(C(=O)CSc2nnc(N)s2)C1 (stereo not drawn),10,-4,-4,-0.5,1,-7
COc1ccc(-c2sc3ccc(OC)cc3c2-c2ccc(O)cc2)cc1,/,0,-16,0.6,-3,/
O=C1CN(CC(=O)Nc2cccc(Cl)c2Cl)c2ccccc2N1,5,1,-19,-0.4,1,-6
COc1ccc(OC)c(S(=O)(=O)N(C)CC(=O)N2CCN(c3cccc(Cl)c3)CC2)c1,0,2,1,1.2,-4,-12
C=CCn1c(C)cc(C(=O)CN2C(=O)c3ccccc3S2(=O)=O)c1C,5,-14,-17,0.0,-11,-12
CCC(C)NC(=O)CSc1nc2c(sc(=S)n2-c2cc(Cl)ccc2OC)c(=O)[nH]1 (stereo not drawn),0,-8,/,-0.5,-3,-2
COc1ccc(C(=O)Nc2cccc3c2CCCC3)c(OC)c1,/,-5,6,0.9,1,-7
CC(C)(C)C(=O)NC(NC(=O)C(C)(C)C)c1ccc([N+](=O)[O-])cc1,-3,1,6,1.1,6,-5
COc1ccc(CNC(=O)C/C(C)=N/NC(=O)c2ccc(OC)cc2OC)cc1,23,-13,7,-0.2,-3,-4
Cc1ccc(S(=O)(=O)c2nc(NCc3ccc4c(c3)OCO4)sc2Cl)cc1,?,2,-4,3.0,-14,1
O=C(Nc1nccs1)c1cccc(NC(=O)C2CC2)c1,13,6,-15,-0.4,-16,-7

# Shown as labelled records: part of the list above
CC(C)(C)OC(=O)N1CCC(CNC(=O)Nc2ccccc2)CC1
  TRPV1 potentiator: -11	TRPML1 blocker: -7	CtBP-E1A blk: -18	TRPML1 agonist: 1.2	Six1-Eya2 inh: -7	D2 PAM: -4
CN(c1ccccc1)S(=O)(=O)c1ccc(C(=O)OCC(=O)NCc2ccco2)cc1
  TRPV1 potentiator: -8	TRPML1 blocker: 1	CtBP-E1A blk: 5	TRPML1 agonist: -0.1	Six1-Eya2 inh: 0	D2 PAM: -7

# Assay outcomes (PubChem)

# Hits appear at their usual frequency. About 0.95% of those tested had a hit in this group.
